Assay outcomes (PubChem BioAssay)
PABP FP inh: PABP-poly(A) binding inhibition | P11940 | PABP-poly(A) RNA binding, fluorescence polarization | inhibition, % at 35 µM | 290,000 tested, 1% active | AID 2014;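 active = 50% or more with normal probe brightness, or confirmed in later tests; inconclusive = above 50% with abnormal brightness, or retests that disagree; inactive = below 50% or failed in later tests; about a fifth of its hits are not listed in these tables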;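 note: calls also rest on retests at 20 µM and on dose response follow-up; controls were probe without protein and protein plus probe with vehicle; some compounds called inactive have numbers as strong as hits; many hits fall short of the cut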
Target sequence (P11940 whole entry, looked up): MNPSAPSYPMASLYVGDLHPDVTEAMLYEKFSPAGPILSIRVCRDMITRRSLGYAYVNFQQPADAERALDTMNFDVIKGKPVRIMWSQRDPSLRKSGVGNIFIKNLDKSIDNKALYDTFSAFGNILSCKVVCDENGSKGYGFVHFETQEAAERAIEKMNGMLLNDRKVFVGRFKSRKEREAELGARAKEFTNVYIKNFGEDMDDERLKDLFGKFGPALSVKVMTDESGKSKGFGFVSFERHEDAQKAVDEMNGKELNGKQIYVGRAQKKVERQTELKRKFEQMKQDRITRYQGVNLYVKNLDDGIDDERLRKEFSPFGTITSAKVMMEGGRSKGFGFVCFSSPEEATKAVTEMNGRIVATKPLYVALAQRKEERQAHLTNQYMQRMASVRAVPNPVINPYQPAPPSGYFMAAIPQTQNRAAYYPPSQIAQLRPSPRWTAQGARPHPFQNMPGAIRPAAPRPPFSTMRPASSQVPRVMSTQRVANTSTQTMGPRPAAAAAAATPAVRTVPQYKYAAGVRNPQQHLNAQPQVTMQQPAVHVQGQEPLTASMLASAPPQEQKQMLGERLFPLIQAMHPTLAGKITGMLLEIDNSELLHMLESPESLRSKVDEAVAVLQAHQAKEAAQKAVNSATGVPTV
UUG fidelity: alters start codon recognition fidelity in yeast. S. cerevisiae UUG-firefly luciferase reporter, luminescence/redox ratio. 350,000 tested, 0.13% active. activity score, % at 18.7 µM. AID 602363;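 active = replicate mean at a twofold rise or more, about +100% in these data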;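 note: firefly luciferase made from a UUG start codon reports start codon fidelity; reporter light over untreated wells divided by growth signal over untreated wells; some hits fall short of that in this replicate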
MT1-MMP act inh: inhibitors of human MT1-MMP activation | 360,000 tested, 0.061% active | HT1080 RFP-PRO-GFP cells, GFP/RFP ratio fluorescence, overnight; percent of plate control window, DMSO zero | GFP/RFP ratio change, % at 20 µM | AID 651647 | P50281;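 active = GFP/RFP ratio change of at least 30% with cell ATP level not reduced by more than half and red fluorescence within 50% of control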; note: strong numbers were not always called active
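Assay system: RFP-PRO-GFP reporter HT1080 cells; read-out basis: GFP/RFP fluorescence ratio; benchmarks: DMSO wells and RFP-L50D-GFP cells; doses: 20 µM single dose, 1% DMSO; schedule: overnight cell settling, then overnight compound exposure, 37 °C, 5% CO2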
Rce1 inh: yeast Ras-converting enzyme inhibition | 290,000 tested, 0.27% active | yeast membranes, quenched prenylated peptide cleavage fluorescence | calls only | Q03530;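 active = fall in fluorescence gain of 50% or more versus controls, with final raw signal at or below 3038400; inconclusive = same 50% fall but final raw signal above 3038400; inactive = fall in fluorescence gain under 50%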;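 note: plate controls were neutral control wells for no effect and wells lacking membranes for full effect; tested at 10 µM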
Target sequence (Q03530 whole entry, looked up): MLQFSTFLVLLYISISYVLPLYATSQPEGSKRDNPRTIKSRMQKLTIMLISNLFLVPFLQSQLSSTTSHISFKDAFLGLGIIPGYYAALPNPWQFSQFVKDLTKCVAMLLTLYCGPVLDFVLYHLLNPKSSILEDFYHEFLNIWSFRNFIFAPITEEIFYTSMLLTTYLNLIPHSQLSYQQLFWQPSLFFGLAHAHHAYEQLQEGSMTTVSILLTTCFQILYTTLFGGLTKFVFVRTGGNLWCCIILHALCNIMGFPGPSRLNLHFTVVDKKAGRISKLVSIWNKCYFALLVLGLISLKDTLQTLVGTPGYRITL
eIF4H FP inh: inhibitors of RNA binding by human eIF4H; inhibition, % at 35 µM; Q15056; eIF4H fluorescence polarization binding assay; 290,000 tested, 0.94% active; AID 2012;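 active = 50% or more with normal probe brightness, or confirmed in later tests; inconclusive = above 50% with abnormal brightness, or retests that disagree; inactive = below 50% or failed in later tests; about a fifth of its hits are not listed in these tables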;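 note: calls also rest on retests at 20 µM and on dose response follow-up; 0% = protein and probe with vehicle and 100% = probe without protein; strong numbers were not always called active; many hits fall short of the cut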
CSC inhib: cancer stem cell inhibition; cancer stem cell-like cells viability, luminescence; inhibition, % at 7.5 µM; 300,000 tested, 1.1% active; AID 2717;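 active = mean at 75% or more and at least half the replicates too; inconclusive = mean and replicates disagree; tested in HMLE shEcad cells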;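 note: 0% = median of negative and 100% = median of positive control wells; the first replicate is given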
Env fusion inh: inhibitors of HIV Env-mediated cell fusion. inhibition, % at 12.3 µM. HeLa-JRFL Env/CEM21 cell fusion, luciferase. AID 651610. 360,000 tested, 1.1% active;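 active = mean replicate inhibition score of at least 50 and every replicate individually at or above 50; inconclusive = only one of the two criteria met; inactive = mean below 50 and not all replicates reaching 50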;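 note: 0% = plate neutral controls and 100% = maraviroc near 300 nM; one replicate is shown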
eIF4H FP inh retest: second read-out of eIF4H FP inh, no call of its own (marks repeat the call); inhibition, %; compound at 20 µM; confirmation average;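 mean of two retest wells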
PABP FP inh retest: recorded beside PABP FP inh, whose call it bears; inhibition, %; compound at 20 µM; confirmation repeats;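 mean of two retest wells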
MT1-MMP act inh RFP: further read-out of MT1-MMP act inh, marked with its call; RFP signal change, %; measured here: RFP expression control read;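 0 = vehicle wells; hits needed this value within 50% of zero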
Numbers without * were called inactive; i = inactive; ? = inconclusive; . = not tested or not shown. The list is partial; rates above refer to the full screens.

SMILES	PABP FP inh	UUG fidelity	MT1-MMP act inh	MT1-MMP act inh RFP	Rce1 inh	eIF4H FP inh	CSC inhib	Env fusion inh	others
CCCCC1CCC(c2nc(-c3ccccn3)no2)CC1 (stereo unspecified)	0	-17	3	-2	i	-3	-6	.
CC(C)(C)c1ccc2cccc(F)c2n1	.	-14	3	5	.	.	.	25
CCC1(C(=O)OC)NC(c2ccco2)C2C(=O)N(c3ccc(C)cc3)C(=O)C21 (stereo unspecified)	16	-11	-3	7	i	0	-7	-2
O=C(c1cccc(Cl)c1)N1CCCC(C(=O)N2CCN(c3ccccc3)CC2)C1 (stereo unspecified)	-9	23	-3	-2	i	1	-17	-91
CC(=O)c1cnc(Nc2ccc(C)cc2)s1	-12	.	-4	-7	i	-1	0	-50
Cc1cccc(NC(=O)CNC(=O)Cn2cc(C(F)(F)F)cc(Cl)c2=O)c1C	.	-18	11	1	.	.	.	-2
CC(C)CNC(=O)CSc1nc2scc(-c3ccccc3)c2c(=O)[nH]1	-2	-12	-5	-16	i	-15	.	.
Cc1csc(C(=O)O)c1NC(=O)c1cccc([N+](=O)[O-])c1	11	.	.	.	i	-3	-5	33
COc1ccc(CN2CC(C(=O)NCCCN3CCCCC3)CC2=O)cc1 (stereo unspecified)	-12	-6	-1	5	i	-8	-21	-2
CCO[C@@H]1OC(C(=O)N2CCN(C)CC2)=C[C@H](C2CCCCC2)[C@H]1CCCO	5	-14	3	2	i	-4	7	-6
CCN(CC)CCNC(=O)c1c(O)c2c([nH]c1=O)CCCC2	-4	-11	3	2	i	-12	13	.
C=CCN(C(=O)Nc1ccc(OC)cc1)c1nnc(-c2ccncc2)s1	-6	-17	0	1	.	-10	-9	13
N#CC1=C(N)Oc2n[nH]c(-c3ccc(F)cc3)c2C1c1cccnc1 (stereo unspecified)	0	-4	-18	-2	i	-8	.	.
Cc1ccc(OCC(=O)NCCc2nc3ccccc3[nH]2)c(C)c1	-2	.	-4	-3	i	4	-1	6
COc1cccc(NC(=O)c2ccc3c(SCC(=O)O)c4c(nc3c2)CCCC4)c1	-6	.	11	8	i	-1	6	14

The final 4 records of the part before are carried over, then new ones follow.
SMILES	PABP FP inh	UUG fidelity	MT1-MMP act inh	MT1-MMP act inh RFP	Rce1 inh	eIF4H FP inh	CSC inhib	Env fusion inh	others
C=CCN(C(=O)Nc1ccc(OC)cc1)c1nnc(-c2ccncc2)s1	-6	-17	0	1	.	-10	-9	13
N#CC1=C(N)Oc2n[nH]c(-c3ccc(F)cc3)c2C1c1cccnc1 (stereo unspecified)	0	-4	-18	-2	i	-8	.	.
Cc1ccc(OCC(=O)NCCc2nc3ccccc3[nH]2)c(C)c1	-2	.	-4	-3	i	4	-1	6
COc1cccc(NC(=O)c2ccc3c(SCC(=O)O)c4c(nc3c2)CCCC4)c1	-6	.	11	8	i	-1	6	14
CC(=O)Nc1nc2cc3c(cc2s1)OCO3	-8	-24	0	-3	i	-4	7	-78
CCCn1c(SCCN2C(=O)c3ccccc3C2=O)n[nH]c1=O	5	-18	-1	2	i	3	-2	.
COC(C(=O)N1CCC(CCC(=O)Nc2ccccc2)CC1)c1ccccc1 (stereo unspecified)	7	13	-1	-2	i	1	-1	-12
COc1ccc(C/C(C)=N\NC(=O)c2cn(C)c3ccccc23)cc1OC	-14	.	2	0	i	-7	0	-11
O=C(c1ccco1)N1C2C=CC(C2)C1(C(F)(F)F)C(F)(F)F (stereo unspecified)	4	.	2	0	i	-8	-8	.
CCN(CC)c1nc2ccccc2[nH]1	5	-6	4	4	i	-6	-9	22
CCc1ccc(NC(=O)C2CCCCC2C(=O)O)cc1 (stereo unspecified)	0	.	4	3	i	2	0	-12
O=C(CN(C(=O)CCC(=O)Nc1ccccn1)c1ccc2c(c1)OCO2)NCc1ccc(F)cc1	-1	-14	3	1	i	-8	-7	8
COc1ccc(S(=O)(=O)CCC(=O)N(C)c2ccc(OC)cc2OC)cc1	14	-3	6	2	i	8	-7	2
O=C(/C=C/c1ccc(S(=O)(=O)N2CCOCC2)cc1)N1CCCCC1	.	-13	2	0	.	.	.	-33
S=C(NN=C1C2CC3CC(C2)CC1C3)Nc1ccccc1	-8	-20	9	3	i	10	25	-79
COc1ccc(NC(=O)C(C)N2C(=O)c3ccccc3S2(=O)=O)c(OC)c1 (stereo unspecified)	.	-5	-1	1	i	.	-8	-3
C/C(=N\NC(=O)CSCc1ccccc1Br)c1cccc([N+](=O)[O-])c1	12	-11	4	-8	i	9	6	.
CCOC(=O)c1c(-c2ccc(OC)cc2)csc1NC(=O)C1CCCO1 (stereo unspecified)	-6	.	1	-3	i	-4	66	5
COc1ccc(Nc2ncccc2C(=O)O)cc1	1	-12	2	-8	i	-4	-2	-129
CC12C(=O)N(n3cnnc3)C(=O)C1C1C=CC2C1 (stereo unspecified)	9	-13	10	5	i	7	-5	-14
COC(=O)c1ccc(N(C(=O)CNC(=O)c2ccco2)C(C(=O)NCC2CCCO2)c2ccc(OC)c(OC)c2)cc1 (stereo unspecified)	-2	-3	-3	-2	i	2	-5	-8
COC(=O)c1cccc(NC(=S)NC(C)C)c1	-10	.	1	0	i	-1	.	-13
COc1ccc(NC(=S)N2CCN(c3ncccn3)CC2)c(OC)c1	0	.	0	-3	i	-7	19	12
COCc1cc(=O)[nH]c(/N=C(\N)Nc2cccc(C)c2)n1	-8	.	4	3	i	107	-3	-68	eIF4H FP inh retest=16;PABP FP inh retest=33
COc1ccc(/C=N/NC(=O)CNS(=O)(=O)c2ccc(C)cc2)cc1	-9	.	-1	-1	i	-6	15	6
COc1ccc(NS(=O)(=O)c2cccc(C(=O)NCC3(N(C)C)CCCCC3)c2)cc1	.	.	2	1	i	.	-3	-5
Cc1ccc(S(=O)(=O)N(C)CC(=O)OCC(=O)N2CCN(c3ccccc3)CC2)cc1	-1	-26	3	7	i	-1	-27	-8
CCOC(=O)C1CCCN(C(=O)CCn2nc(-c3ccccc3)ccc2=O)C1 (stereo unspecified)	6	4	0	4	i	-2	-4	.
O=C(COC(=O)CSc1ccc([N+](=O)[O-])cc1)NCc1cccs1	.	-16	5	-2	i	.	-7	-99
CCNC(=O)c1ccccc1-c1nc(-c2ccccc2)no1	-2	-10	3	1	i	0	-5	-3
COCC1CCN(C(=O)c2cc(COc3ccc(C)c(C)c3)on2)C1 (stereo unspecified)	-2	13	-1	-1	i	-1	-7	-6
Cc1ccc(S(=O)(=O)c2cc(OC(=O)c3ccco3)ccc2OC(=O)c2ccco2)cc1	4	.	3	4	i	11	-42	-1
C/C(=N\NC(=O)c1ccc(F)cc1)c1cccc(NC(=O)c2ccco2)c1	-1	-15	1	3	i	-8	7	.
CC1Cc2ccccc2N1C(=S)NC(=O)C1(C)CC1(Cl)Cl (stereo unspecified)	30	.	5	4	i	8	10	0
COc1cccc(/C=N/NC(=O)c2cccc3ccccc23)c1OC	.	-3	10	3	i	.	-16	-13
COc1ccccc1NS(=O)(=O)c1ccc(O)c(C(=O)OCC(=O)Nc2ccccc2F)c1	-9	16	2	2	i	-7	8	14
O=C(COc1ccccc1)N1CCCC1	11	.	-1	1	i	-2	25	-7
CN1C(=O)/C(=C/c2ccccc2Cl)Sc2ccc(C(=O)N3CCCC3)cc21	-3	-13	-2	-12	i	-9	-11	-1
CCCCNC(=O)NC1C(NC(=O)NCCCC)N(C)C(=O)N1C (stereo unspecified)	-10	14	0	6	i	-9	-6	.
CC1CCCC(C)N1C(=O)CSc1nnc(COc2ccccc2)n1-c1ccccc1 (stereo unspecified)	-1	.	-2	-6	i	-2	36	-10
COc1ccccc1N(/N=C1\Sc2ccccc2C1=O)C(C)=O	-9	.	7	21	i	6	-14	i
CCOc1ccc(Nc2nc(N)c([N+](=O)[O-])c(N3CCN(CC)CC3)n2)cc1	8	0	2	-1	i	-5	0	9
O=C1c2cccc3cc([N+](=O)[O-])cc(c23)C(=O)N1c1ccccc1O	16	.	-31	3	i	41	-14	-9
O=C1CC(c2nc3ccccc3[nH]2)CN1c1ccccc1F (stereo unspecified)	4	-20	1	8	i	-7	-4	2
Cc1nc(-c2ccc(Cl)cc2)sc1C1(C)CC(c2cccnc2)=NO1 (stereo unspecified)	0	-19	4	-9	i	-10	21	-45
CCOC(=O)c1c(C(F)(F)F)cc(-c2ccc(F)cc2)nc1C	2	.	0	5	i	-2	5	.
O=C(/C=C/c1cn(-c2ccccc2)nc1-c1ccccc1)Nc1ccc(C(=O)O)cc1	-5	-4	4	-6	i	19	10	-33
CN(C)c1cccc2c(S(=O)(=O)N3CCCC3)cccc12	8	.	3	-1	i	-8	8	-5
Cc1ccc2cc3cc(C(=O)NCCN4CCOCC4)oc3nc2c1	5	1	4	2	i	11	1	59*
CCCN1C/C(=C/c2cccc([N+](=O)[O-])c2)C(=O)/C(=C/c2cccc([N+](=O)[O-])c2)C1	-2	3	-16	-42	.	-1	.	.
O=C(NC1CCCC1)C(c1ccncc1)N(C(=O)c1ccco1)c1ccc(Cl)cc1 (stereo unspecified)	7	3	1	3	i	-18	-32	18
O=C(Nc1ccc(Cl)cc1)c1cc(S(=O)(=O)N2CCOCC2)cs1	-2	-16	-2	-18	i	1	-1	?
COc1cccc2cc(-c3cc(=O)oc4cc(C)c(O)cc34)oc12	10	-11	1	-3	i	20	7	7
Cc1ccc(C(=O)N[C@H](C(=O)Nc2ccc(F)cc2)C(C)C)cc1	-6	-5	1	-1	i	-8	10	-32
CCOC(=O)COc1ccc(S(=O)(=O)Nc2cccc(SC)c2)cc1	-8	.	1	0	i	-1	3	-60
COc1ccc(-c2nnc(NC(=O)c3cc(Cl)ccc3Cl)o2)cc1	10	-16	6	5	i	4	22	36
CCCN(CCC)C(=O)c1cn(CC)c2ccc(S(=O)(=O)N3CCCCC3)cc2c1=O	3	-13	-2	3	i	-7	-33	11
CN(C)c1ccc(-c2csc(C(O)c3ccccc3)n2)cc1 (stereo unspecified)	.	-7	1	-6	.	.	.	-160
CCc1ccc(N(CC(=O)NCCc2ccccc2)C(=O)CCC(=O)Nc2ccccn2)cc1	7	0	-1	0	i	14	.	-2
CC(C)CCN1CCN(Cc2cnc(-c3ccccc3)s2)CC1CCO (stereo unspecified)	-4	.	-1	3	i	-3	39	10
CC(C)n1cc(/C=C2/SC(=O)N(CC(=O)Nc3ccc4c(c3)OCO4)C2=O)c2ccccc21	0	-21	-4	-2	i	-14	11	.
Cc1ccncc1C(N)=O	-4	.	1	1	i	-15	-13	-38
CC(=O)Nc1nc(C)c(-c2csc(Nc3cccc([N+](=O)[O-])c3)n2)s1	5	-12	-13	-9	i	7	1	.
Cc1ccc(S(=O)(=O)N2CCCCC2)cc1NC(=O)C1COc2ccccc2O1 (stereo unspecified)	.	-11	2	-1	.	.	.	5
C/C(=N\Nc1cc(-c2ccccc2)nc(-c2ccccc2)n1)c1ccc(O)c(C)c1	20	-9	-7	-2	i	-4	.	.
COc1ccc(CNC(=O)CN(C(=O)CCC(=O)Nc2ccccn2)c2ccccc2OC)cc1	-4	1	5	1	i	-2	-12	.
CCN(CC(=O)NCc1ccc(Cl)cc1)C(=O)CSc1cc(C)ccc1C	.	-10	0	-4	i	.	-9	10
